ALR H2O2 inh – inhibitors of human ALR sulfhydryl oxidase, primary screen, biochemical, H2O2 detection, HRP-luminol luminescence, single point; purified ALR, DTT oxidation; inhibition, % (concentration not given with the values); AID 485317, 2010; FAD-linked sulfhydryl oxidase ALR (Homo sapiens), P55789; 290,000 tested, 3.8% active;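 active = mean and each replicate at 75% or more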;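 note: stock transfer was 7.5 nL into about 7.5 µL; 0% = neutral wells and 100% = wells with inactivated enzyme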
E coli growth – E. coli growth inhibition, primary screen, OD600; Escherichia coli growth, 23 h; stronger effect = lower value; OD600 absorbance (no concentration beside the values); 330,000 tested, 0.21% active; AID 1053175, 2014;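 active = OD600 absorbance below the run mean of sample wells minus 3.6 SD, in any replicate, cut at about 0.56 in these data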;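 note: stock transfer was 300 nL into about 60 µL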
rRNA inh HTS – reduced GFP signal of wild-type E. coli, primary screen, bacterial rRNA inhibitor project, GFP/RFP fluorescence, OD600, single point | GFP signal change (wild-type ribosome), % (no concentration beside the values) | 350,000 tested, 1.6% active | E. coli WT GFP vs humanized-ribosome RFP mutants, 24 h; stronger effect = lower value; DMSO median 0, no signal -100 | AID 720706, 2013;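 active = significant combined selectivity score with lowered wild-type GFP, culture density cut under 30%, mutant RFP and density less affected; inactive = any of these conditions unmet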; note: one replicate is shown; some compounds called inactive have numbers as strong as hits
FGF22 binding – binders of human FGF22 protein, primary screen, FGF22 synaptogenesis inhibitor project, biophysical, thermal shift, single point; Fibroblast growth factor 22 (Homo sapiens), Q9HCT0; recombinant FGF22 thermal shift, SYPRO orange fluorescence; percent of sucrose octasulfate shift, DMSO zero; calls only at 9.99 µM; 340,000 tested, 1.5% active; AID 651658, 2012;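 active = melting point raised past a set limit in the mean and every replicate; three in four hits are not shown here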
Target sequence (Q9HCT0 whole entry, looked up): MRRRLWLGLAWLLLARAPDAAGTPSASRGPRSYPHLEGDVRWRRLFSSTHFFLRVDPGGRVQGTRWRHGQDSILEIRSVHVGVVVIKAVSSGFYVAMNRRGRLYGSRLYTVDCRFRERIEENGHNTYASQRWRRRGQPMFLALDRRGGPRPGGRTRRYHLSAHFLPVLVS
Beta2AR agonist – beta2AR agonists driving receptor internalization, primary screen, cell-based, FAP fluorogen, flow cytometry; Beta-2 adrenergic receptor (Homo sapiens), P07550; Am2.2-beta2AR cells; reference of the scale not given here; response, % (test concentration not listed); 340,000 tested, 0.43% active; AID 504454, 2011;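 active = response above a set limit, near 3 SD of response in nonfluorescent compounds, cut at about 42% in these data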;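 note: stock transfer was 100 nL into about 11 µL; a reference agonist was the positive control; negative values mostly stem from fluorescent compounds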
Target sequence (P07550 whole entry, looked up): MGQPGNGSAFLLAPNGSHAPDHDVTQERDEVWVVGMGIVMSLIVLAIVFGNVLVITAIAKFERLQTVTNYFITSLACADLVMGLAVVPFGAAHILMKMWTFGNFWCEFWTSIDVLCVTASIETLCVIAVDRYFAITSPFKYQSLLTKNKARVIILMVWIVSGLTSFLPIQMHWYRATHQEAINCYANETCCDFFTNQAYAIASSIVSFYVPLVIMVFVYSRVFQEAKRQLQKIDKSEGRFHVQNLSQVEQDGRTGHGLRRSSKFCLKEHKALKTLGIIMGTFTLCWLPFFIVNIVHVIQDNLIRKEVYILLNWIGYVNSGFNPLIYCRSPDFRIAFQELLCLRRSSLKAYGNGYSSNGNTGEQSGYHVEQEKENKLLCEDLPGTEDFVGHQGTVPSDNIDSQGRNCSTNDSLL
HNF4A DNA FP – change in binding of human HNF4A to DNA, primary screen, biochemical, fluorescence polarization, FITC-DNA. Hepatocyte nuclear factor 4-alpha (Homo sapiens), P41235. 360,000 tested, 0.3% active. activity change, % at 10 µM. 1 h; in the data active = activity change above about 30%, passing the limit was not always enough;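 note: controls were the assay level and a saturating level of protein; the project sought stronger binding though the title names inhibitors; some compounds called inactive have numbers as strong as hits; positive values seem to mean higher polarization but the record does not say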
Target sequence (P41235 whole entry, looked up): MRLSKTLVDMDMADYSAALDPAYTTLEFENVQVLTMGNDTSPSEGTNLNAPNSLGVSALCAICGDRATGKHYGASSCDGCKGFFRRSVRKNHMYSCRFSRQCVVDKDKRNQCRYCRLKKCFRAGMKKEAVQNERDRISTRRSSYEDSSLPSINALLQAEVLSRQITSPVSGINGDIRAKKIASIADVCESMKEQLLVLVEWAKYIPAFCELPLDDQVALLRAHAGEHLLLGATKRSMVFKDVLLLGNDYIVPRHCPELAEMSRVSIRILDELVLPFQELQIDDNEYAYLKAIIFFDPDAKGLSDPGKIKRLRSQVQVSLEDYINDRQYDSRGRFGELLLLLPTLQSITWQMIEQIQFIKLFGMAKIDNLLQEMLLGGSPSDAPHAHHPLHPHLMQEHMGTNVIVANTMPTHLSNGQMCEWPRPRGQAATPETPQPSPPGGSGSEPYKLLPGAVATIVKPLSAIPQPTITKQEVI
UCH37 DUB inh – inhibitors of human UCH37 deubiquitinase, primary screen, biochemical, Ub-AMC cleavage, fluorescence; Ubiquitin carboxyl-terminal hydrolase isozyme L5 (Homo sapiens), Q9Y5K5; purified proteasome/UCH37; inhibition, % (concentration not given with the values); 330,000 tested, 0.33% active;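 active = mean of two replicates above 20%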;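 note: 0% = compound-free wells with enzyme and 100% = wells lacking proteasome; stock transfer was 100 nL into about 20 µL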
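Material: Human UCH37 enzyme supplied as purified proteasome complex | Schedule: 30 min compound-proteasome preincubation then 25 min substrate reaction, room temperature | Detection: AMC fluorescence from Ub-AMC cleavage, excitation 355 nm, emission 460 nm | Benchmarks: Wells without proteasome as full block, compound-free enzyme plus substrate as uninhibited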
rRNA inh HTS OD600 – further read-out of rRNA inh HTS, marked with its call; OD600 change, %; measured here: OD600 growth;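 optical density of the mix in the first replicate; 0 = DMSO median and -100 = no signal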
rRNA inh HTS RFP – also measured in rRNA inh HTS; calls as there; RFP signal change, %; measured here: RFP humanized mutant strains;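 first replicate; 0 = DMSO median and -100 = no signal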
The depositor's hits bear a star; i = inactive; / = no result given. These rows are one share of the data. The share of hits here may be higher or lower than overall.

SMILES	ALR H2O2 inh	E coli growth	rRNA inh HTS	rRNA inh HTS OD600	rRNA inh HTS RFP	FGF22 binding	Beta2AR agonist	HNF4A DNA FP	UCH37 DUB inh
Cc1cccc(-c2nc(CSc3nc4c(c(=O)[nH]3)CCC4)c(C)o2)c1	99*	0.74	9	1	-1.0	i	-1	0.4	4.2
O=C(CN1CCCCC1)Nc1cccc([N+](=O)[O-])c1	-3	0.67	/	/	/	/	-5	4.2	1.5
CCc1nnc(NS(=O)(=O)c2ccc(NC(=S)NC(=O)/C=C/c3ccc(F)cc3)cc2)s1	/	0.67	/	/	/	/	7	-0.1	5.7
O=C(CNc1cc(S(=O)(=O)N2CCOCC2)ccc1NCC1CCCO1)Nc1ccc(F)c(F)c1 (stereo not drawn)	-7	0.69	-5	-4	12	i	1	-1.8	1.5
COc1ccccc1OCC(=O)NNC(=O)c1cccs1	63	0.67	-24	-36	-15	i	-6	-3.7	2.5
CC(C)(C)NC(=O)C1(N2C(=O)c3ccccc3C2=O)CCCC1	/	0.67	-1	1	-0.5	i	-4	2.6	3.0
O=C(NC1CCCCC1)C(c1ccc2ncccc2c1)N(Cc1ccc2c(c1)OCO2)C(=O)c1ccc2c(c1)OCCO2 (stereo not drawn)	-12	0.72	8	12	1.0	i	-8	-4.2	3.6
O=C(c1ccc2c(c1)OCO2)N1CCN(S(=O)(=O)c2ccc(Br)cc2Cl)CC1	-5	0.69	/	/	/	i	-6	-0.6	-1.7
CC(OC(=O)Cc1coc2ccc3ccccc3c12)C(=O)NC(N)=O (stereo not drawn)	-20	0.74	-27	-23	1.6	i	0	3.7	-3.8
Cc1cccc(C(=O)NNC(=O)c2csc(N3CCOCC3)n2)c1C	6	0.68	10	19	-0.4	i	-10	-1.4	-0.9
CCOC(=O)C1CCN(C(=O)c2ccc(S(=O)(=O)Nc3ccccc3OC)cc2)CC1	-1	0.7	4	3	1.7	i	7	1.8	-1.8
Cc1ccc(S(=O)(=O)n2nc(OC(=O)c3ccccc3C)cc2N)cc1	/	0.65	-1	1	1.5	i	4	-0.2	4.0
CCCN(N=Nc1cccc([N+](=O)[O-])c1)c1cccc([N+](=O)[O-])c1	-5	0.71	13	-5	-2.9	i	4	2.5	8.3
COc1ccc(CC(N)c2csc(Nc3nccc(C(F)(F)F)n3)n2)cc1 (stereo not drawn)	/	/	2	-20	20	i	/	-3.1	/
COc1ccc(C(=O)CN2C(=O)NC3(CCCc4ccccc43)C2=O)c(OC)c1 (stereo not drawn)	4	0.73	7	14	-1.6	i	11	4.1	3.1
CC(C)CN(CC(C)C)c1nnc(N)s1	99*	0.7	5	5	10	i	7	2.5	-0.3
Cc1cc(Nc2ccccc2)c2c([N+](=O)[O-])cc(C)c(C)c2n1	8	0.81	/	/	/	/	10	0.7	-0.4
COc1ccc2cc(CN(C)C(=O)CN3C(=O)NC4(CCCC4)C3=O)ccc2c1	/	/	-6	-14	-1.8	i	/	-0.5	/
O=C(CN1C(=O)NC2(CCOc3ccccc32)C1=O)c1ccc(Br)cc1 (stereo not drawn)	2	0.68	-31	-40	-8.7	i	2	-1.8	1.6
CCOc1ccc(CC(=O)OCc2cc(=O)n3cc(Br)ccc3n2)cc1	17	0.71	1	8	-6.7	i	-11	2.1	0.5
COC(=O)c1cc(NS(=O)(=O)c2ccc(Cl)c(N3C(=O)c4ccc(C(=O)O)cc4C3=O)c2)cc(C(=O)OC)c1	2	0.71	3	-9	2.7	i	-5	6.5	3.5
CCN1CCN(C2=CC3=CC(=C(C#N)C#N)CCC3CC2)CC1 (stereo not drawn)	/	0.69	/	/	/	/	i	-114	32*
C/C(=N/OC(=O)c1c(-c2c(Cl)cccc2Cl)noc1C)c1cnccn1	-30	/	-29	-30	-4.7	i	4	-1.0	/
COc1ccc(CC2C(=O)NC(C)C(=O)N(C)C3Cc4ccc(cc4)Oc4cc(ccc4O)CC(C(=O)NC(C)C(=O)NC(C)C(=O)N2C)N(C)C3=O)cc1 (stereo not drawn)	/	/	12	14	3.2	i	2	-4.7	/
Cc1c(Cl)c([N+](=O)[O-])nn1CC(=O)NCC(C)C	-8	0.68	11	6	-4.0	i	2	-2.1	3.3
CCOc1ccc2oc(C(=O)NC3CC(C)(C)NC(C)(C)C3)c(C)c2c1	/	0.69	3	9	-3.8	i	-12	5.9	-21
Nc1ncnc2c1ccn2[C@H]1CN(Cc2ccc3c(c2)OCO3)C[C@@H](COC(=O)c2ccccc2)O1	/	/	2	-7	6.3	i	/	0.0	/
COc1cc(CNCc2cccs2)ccc1OCc1ccccc1	-2	0.66	-10	-6	0.7	i	23	1.2	0.4
O=C1[C@H](Cc2ccccc2)NCCCC[C@H](c2ccco2)N1Cc1ccccc1	/	/	-29	-47	-4.3	i	23	4.1	2.4
O=C1NC(=O)C(CC(=O)N(Cc2cccs2)C2(C(=O)NC3CCCC3)CCCCC2)N1 (stereo not drawn)	-13	0.68	/	/	/	/	-3	-0.4	2.2
COc1ccc(OC)c(/C=C/c2nc3ccccc3[nH]c2=O)c1	0	0.7	6	0	-1.6	i	-6	-0.9	-15
COc1ccc(NS(=O)(=O)c2ccc(Oc3cccc(C(=O)O)c3)cc2)cc1	-3	0.67	9	2	2.6	i	-5	-2.1	1.0
COC(=O)CCCNC(=O)c1ccccn1	-11	0.72	18	15	2.2	i	4	-2.4	0.4
O=C(Nc1ccc(Cl)cc1)Nc1nnc(/C=C/c2ccccc2)s1	/	0.67	-29	9	29	i	14	0.9	-16
O=C(NCCc1ccc(F)cc1)c1ccc(Cl)c(S(=O)(=O)N2CCOCC2)c1	0	0.72	-4	-1	-1.6	i	2	-3.3	2.1
Cc1ccccc1C(=O)Nc1nc2c(C)csc2c(=O)s1	-4	0.7	6	-3	-1.0	i	5	-2.9	-6.9
O=C(Nc1ccccc1)C1=C(c2ccccc2)S(=O)(=O)CCS1(=O)=O	/	0.58	-22	-33	-7.9	i	28	-0.8	-1.0
Cn1c2c(c(=O)n1-c1ccccc1)CSCC2	-4	0.62	8	21	2.7	i	5	-0.2	2.9
CC(C)c1cc(C(F)(F)F)n2nc(C(=O)Nc3ccc4c(c3)OCO4)cc2n1	0	0.69	/	/	/	/	-4	0.9	6.0
CC1CCCN(C(=S)SCC(=O)O)C1 (stereo not drawn)	/	0.63	/	/	/	/	14	-1.1	0.6
Cc1cc(/C=C2/C(=N)N3C(=NC2=O)SN=C3S(C)(=O)=O)c(C)n1-c1ccc(F)cc1	62	0.68	-30	-37	2.3	i	-2	2.6	-0.6
CCNC(=S)NNC(=O)CSc1nc2ccccc2n1C	47	0.62	-10	2	3.1	i	-1	2.1	0.1
Cc1ccc(C(=O)OCC(=O)N(C)c2ccccc2)cc1C	2	0.7	-6	-12	0.2	i	2	5.3	5.5
Cn1c(=O)n(-c2ccccc2)c(=O)c2c3c(sc21)COC(C)(C)C3	/	0.71	/	/	/	/	1	1.9	1.4
CCCc1nnc(NC(=O)CCC(=O)N2CCN(C3c4ccccc4-c4ccccc43)CC2)s1	-28	0.72	15	0	-5.1	i	-6	-1.9	2.9
CC(C)CNC(=O)c1cccc(Cn2cc(Cl)cn2)c1	-5	0.64	/	/	/	/	-5	-1.1	2.9
CN1OC[C@@H]2CN(C(=O)CCc3ccccc3)[C@H](c3ccc(N4CCCCC4)cc3)C[C@@H]21	/	/	2	-3	1.9	i	/	10	/
COc1cc(C(=O)NCc2ccco2)c(Br)c(OC)c1OC	14	0.69	/	/	/	/	-6	2.6	-0.5

5 of the entries above in order of their number in rRNA inh HTS OD600, smallest number first:
Compound | rRNA inh HTS OD600
O=C1[C@H](Cc2ccccc2)NCCCC[C@H](c2ccco2)N1Cc1ccccc1 | -47
COc1ccc2cc(CN(C)C(=O)CN3C(=O)NC4(CCCC4)C3=O)ccc2c1 | -14
Nc1ncnc2c1ccn2[C@H]1CN(Cc2ccc3c(c2)OCO3)C[C@@H](COC(=O)c2ccccc2)O1 | -7
CC(C)(C)NC(=O)C1(N2C(=O)c3ccccc3C2=O)CCCC1 | 1
COc1ccc(NS(=O)(=O)c2ccc(Oc3cccc(C(=O)O)c3)cc2)cc1 | 2

(more compounds)
SMILES	ALR H2O2 inh	E coli growth	rRNA inh HTS	rRNA inh HTS OD600	rRNA inh HTS RFP	FGF22 binding	Beta2AR agonist	HNF4A DNA FP	UCH37 DUB inh
Cc1cc(=O)[nH]c(SCC(=O)Nc2ccc(Br)cc2)n1	-7	0.63	-15	0	9.3	i	3	1.3	0.1
CCCOc1ccc(-c2nc(N3CCN(CC)CC3)c3ccccc3n2)cc1	-6	0.63	-7	-9	6.3	i	4	-0.3	-32
CCCCCCCC/C=C\CCCCCCCC(=O)NCCO	-17	/	/	/	/	i	5	2.1	1.7
S=C(NCCCCN(Cc1ccc(Cl)cc1)c1ccc(Br)cn1)NCCCc1cnc[nH]1	/	/	-23	-45	-9.7	i	/	3.4	/
CCCCCCC(=O)N(O)C1CC(=O)N(Cc2ccccc2)C1=O (stereo not drawn)	11	0.67	/	/	/	/	6	-0.2	1.8
COc1ccc(N/C(=C2\CCCC2=O)C2CCCCC2)cc1	2	/	16	16	3.9	i	0	0.1	0.7
CCN(CC(=O)Nc1ccc(C(=O)OC)cc1)C1CCCCC1	-6	0.7	3	-4	-2.2	i	-10	3.3	3.8
CCOc1ccc(CN(C)C(=O)c2ccc(S(=O)(=O)N(C)c3ccccc3OC)cc2)cc1	-3	0.65	15	-12	-5.6	i	4	5.0	2.2
CCOc1ccc(NC2=CC(=O)C(=O)c3ccccc32)cc1	/	/	-35	-70	-7.2	i	2	1.8	/
CCCc1[nH]nc2c1C(c1ccoc1)C(C#N)=C(N)O2 (stereo not drawn)	41	0.68	26	16	-2.7	i	13	-0.6	4.7
Cc1csc(NC(=O)Nc2ccc(Cl)cc2)n1	1	0.69	/	/	/	/	-1	-1.4	1.2
COc1ccccc1Oc1ccc2c(c1)C(=O)N(c1ccccc1)C2=O	-6	0.71	/	/	/	/	-2	-1.9	-1.3
O=S(=O)(CCNC1CC1)NC1CCCCC1	/	/	10	6	-6.7	i	-8	-0.3	/
O=C(CCc1nc2ccccc2c(=O)[nH]1)NCc1ccco1	0	0.66	14	19	-0.4	i	-3	0.7	1.9

Results in UCH37 DUB inh (2 entries from above):
SMILES | UCH37 DUB inh
Cc1csc(NC(=O)Nc2ccc(Cl)cc2)n1 | 1.2
COc1ccccc1Oc1ccc2c(c1)C(=O)N(c1ccccc1)C2=O | -1.3

Some values from the list.
Reading of `O=C(CCc1nc2ccccc2c(=O)[nH]1)NCc1ccco1` under Beta2AR agonist: -3
Reading of `CCCc1[nH]nc2c1C(c1ccoc1)C(C#N)=C(N)O2` (stereo not drawn) under rRNA inh HTS RFP: -2.7

Screening data as filed in PubChem BioAssay.
